From PubChem BioAssay
NS1 function inh: inhibitors of influenza NS1 protein function | 270,000 tested, 0.4% active | S. cerevisiae slowed by influenza A NS1, growth recovery by OD600 | Potency, µM (series often up to 46.1 µM), without a hit: top-dose activity, positive = more growth; further: actives are rising curves; nearly all actives have a fitted effect of over 50% in size
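A cell-based growth assay was used: compounds that relieve NS1-induced slow growth of budding yeast raise OD600. Assay medium was yeast nitrogen base with ammonium sulphate and -URA supplement, pH 6.0, with 2% galactose.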
Cruzain inh Det: blocks cruzain activity in presence of Triton detergent | Potency, µM, inactives show max response, negative = inhibition, hits mostly inhibitors | purified cruzain, Z-FR-AMC fluorescence, 0.01% Triton | 200,000 tested, 0.43% active | AID 1478 | P25779; active means well fitted curve in the direction sought with a large enough effect; inconclusive means small, poorly fitted or top-dose-only effect, or another doubt; inactive means no such curve, though single readings can be large; an effect the other way counts as inactive or inconclusive;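 further: plate controls were neutral wells for no effect and buffer without enzyme for full effect; nearly all actives have a fitted effect of over 40% in size; top concentration of the series not given in the record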
Target sequence (P25779 123-467 limits assumed): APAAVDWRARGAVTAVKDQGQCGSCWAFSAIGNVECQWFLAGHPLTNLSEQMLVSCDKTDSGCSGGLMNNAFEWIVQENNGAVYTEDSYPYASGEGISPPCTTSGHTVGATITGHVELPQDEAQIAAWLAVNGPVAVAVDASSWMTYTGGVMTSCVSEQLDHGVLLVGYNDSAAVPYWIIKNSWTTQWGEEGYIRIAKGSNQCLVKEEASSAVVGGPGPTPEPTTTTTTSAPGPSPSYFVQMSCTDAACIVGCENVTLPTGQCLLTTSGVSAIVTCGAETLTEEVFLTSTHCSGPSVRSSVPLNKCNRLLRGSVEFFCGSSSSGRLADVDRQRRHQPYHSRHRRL
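In this qHTS format, compounds are incubated with 1.5 nM cruzain for 15 min at room temperature before 2 uM Z-FR-AMC is added. Release of AMC is followed at 360/450 nm, and progress is taken as the 60 s fluorescence difference.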
2A StopGo: FMDV 2A StopGo reporter, luciferase signal; human cells with a luciferase reporter of 2A StopGo recoding; control for the full effect not named in the record; Potency, µM (highest dose often 57.9 µM), for the others: top-dose signal change, negative = less light; 410,000 tested, 1.2% active; AID 1159524; active = well fitted falling curve with a large enough effect; inconclusive = small, poorly fitted or top-dose-only effect; inactive = no such curve, though single readings can be large or run the other way; tested in HEK293T cells; further: on the % scale 0 is the no-effect control and ±100 the full control effect; nearly all actives have a fitted effect of over 45% in size; luciferase light after 4 h
Cruzain inh noDet: blocks cruzain activity in detergent-free assay; P25779; purified cruzain, Z-FR-AMC fluorescence, no detergent; Potency, µM, without a hit: max response, negative = inhibition, most hits filed as inhibitors; 200,000 tested, 2.3% active; AID 1476; active means well fitted curve in the direction sought with a large enough effect; inconclusive means small, poorly fitted or top-dose-only effect, or another doubt; inactive means no such curve, though single readings can be large; an effect the other way counts as inactive or inconclusive;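 further: plate controls were enzyme without inhibitor for no effect and buffer without enzyme for full effect; nearly all actives have a fitted effect of over 40% in size; top concentration of the series not given in the record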
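Detergent-free condition (0.00005% Triton X-100) in acetate buffer pH 5.5 with DTT. 1.5 nM enzyme and compound were pre-mixed 15 min, then 2 uM Z-FR-AMC substrate added; reaction progress from fluorescence change between first and third reads (60 s).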
RE007 growth inh: less growth of the S. pombe RE007 Vpr strain; 360,000 tested, 0.21% active; Potency, µM (doses to about 92.2 µM), for inactives: at the highest dose activity change, negative = less growth; S. pombe RE007 Vpr strain, BacTiter-Glo ATP luminescence, 24 h; control for the full effect not named in the record; active = well fitted falling curve with a large enough effect; inconclusive = small, poorly fitted or top-dose-only effect; inactive = no such curve, though single readings can be large or run the other way;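 further: on the % scale 0 is the no-effect control and ±100 the full control effect; nearly all actives have a fitted effect of over 50% in size; the assay follows cell death caused by Vpr and the record does not say whether a fall means rescue or toxicity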
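Fission yeast RE007 carrying one integrated HIV-1 vpr copy, seeded at OD 0.01 in PMG+AL medium with 23 nL pinned compound. Grown 24 h at 30 degrees; viability read by BacTiter-Glo luminescence after 5 min.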
SARS PLpro yeast: blocks SARS-CoV papain-like protease in a yeast assay; S. cerevisiae expressing SARS-CoV PLpro, growth rescue; control for the full effect not named in the record; Potency, µM (highest dose often 32.9 µM), for inactives: at the top dose activity, positive = growth rescue; 330,000 tested, 0.19% active; AID 485353; further: 0% is about no effect; nearly all actives have a fitted effect of over 55% in size; growth read by luminescence after 48 h
Lassa entry inh: blocks Lassa virus binding to or entry into cells. AID 540256. Lassa virus pseudotype entry inhibition, cell reporter; control for the full effect not named in the record. Potency, µM (doses to about 37.9 µM), for inactives: at the top dose activity change, negative = inhibition, actives largely listed as inhibitors. 300,000 tested, 1.2% active; active means well fitted inhibition curve with a large enough effect; inconclusive means small, poorly fitted or top-dose-only effect, or effect the other way; inactive means flat fitted curve, though single readings scatter; tested in HEK293 cells; further: on the % scale 0 is the no-effect control and ±100 the full control effect; nearly all actives have a fitted effect of over 50% in size; luciferase read-out
MARV entry inh: inhibitors of Marburg virus binding or cell entry; Marburg virus pseudotyped entry inhibition, cell reporter; control for the full effect not named in the record; about a third of the inactives were read at about 46 µM; Potency, µM (titrated, usually from 37.8 µM), for the others: top-dose activity change, negative = inhibition, hits mostly inhibitors; 300,000 tested, 1.8% active; active = well fitted inhibition curve with a large enough effect; inconclusive = small, poorly fitted or top-dose-only effect, or effect the other way; inactive = flat fitted curve, though single readings scatter; tested in HEK293 cells; about a fifth of its hits are not listed in these tables; further: on the % scale 0 is the no-effect control and ±100 the full control effect; luciferase read-out
* = called active by the depositor; ? = inconclusive; · = not tested or not shown; & = joins results of further samples; [ ] = another dose, or the depositor's remark. Unless noted, the call rests on the fitted dose curve; in most records, active means well fitted rising curve with a large enough effect; inconclusive means small, poorly fitted or top-dose-only effect; inactive means no such curve, though single readings can be large or run the other way. Potency means the concentration at half of the fitted maximal effect. Rows are unselected; about 4.6% have a hit in one of these screens.

SMILES	NS1 function inh	Cruzain inh Det	2A StopGo	Cruzain inh noDet	RE007 growth inh	SARS PLpro yeast	Lassa entry inh	MARV entry inh
O=C(CCCN1C(=O)/C(=C/c2ccccc2Cl)SC1=S)Nc1cccnc1	7%	·	-6%	·	-19%	30%	·	·
Cc1ccc(/C=N/n2c(-c3ccc(Cl)cc3)n[nH]c2=S)s1	·	·	37%[activator]	·	32%	1%	?	?
COc1ccc(-c2noc(C3CCCN(S(=O)(=O)c4ccc(C)c(Cl)c4)C3)n2)cc1OC (stereo not drawn)	-1%	-1.4%	-5%	29%	7%	4%	13%	-2%&-3%
Cn1c(NCCCO)nc2c(c1=O)C1(CCCCC1)Cc1ccccc1-2	-65%	-25%	-14%	?	2%	-36%	-29%	?
COc1cc(O)ccc1C1CC(=O)Nc2c1c(=O)nc(SCc1ccccc1C)n2C (stereo not drawn)	·	1.8%	0%	-17%	·	·	24%[46.1 µM]	?
CCOC(=O)c1sc(NC(=O)c2ccccc2OCC)nc1C	·	·	2%	·	1%	2%	-7%	-4%
CCCCC(CC)CNC(=O)C1CCC(CNS(=O)(=O)c2cccc3nsnc23)CC1 (stereo not drawn)	·	-5.1%	0%	22%	·	·	2%[46.1 µM]	-18%[46.1 µM]
O=C(CN(C(=O)CNC(=O)c1ccco1)c1ccc(Cl)c(Cl)c1)NC1CCCCC1	-7%	-0.6%	-1%	6%	1%	-6%	11%	?
Cn1nccc1C(=O)NC(=S)Nc1sc2c(c1C#N)CCCCC2	4%	3.8%	36%[activator]	6%	1%	-7%	?	15%
CCN1CCN(C(=S)Nc2ccccc2Cl)CC1	4%	1.5%	-19%	1%	0%	6%	-4%	-11%
CCCC(=O)OCc1cnc(C)c2oc(=O)c(C(=O)Nc3cccc(C(F)(F)F)c3)cc12	·	-2.7%	-11%	15%	·	·	5%[46.1 µM]	·
CCC(=O)c1ccc(OCc2ccc(C(=O)OC)o2)c(OC)c1	-6%	-2.0%	0%	2%	-12%	-2%	14%	11%
O=C(Nc1ccc(NC(=O)c2sc3ccccc3c2Cl)cc1Cl)c1ccco1	-3%	-1.8%	22%	-11%	6%	-7%	25%[14.3 µM]	2%
CCOc1ccc(C2=Nn3cnnc3SC2)cc1	-46%	-0.6%	16%	1%	30%	-6%	18%	-4%
COCCN(CCOC)S(=O)(=O)c1ccc(C(=O)Nc2ccc([N+](=O)[O-])cc2OC)cc1	·	·	-6%	·	-12%	1%	15%[46.1 µM]	2%[46.1 µM]
CC(C)CN(CCCNC(=O)c1cn(C)c2ccc(S(=O)(=O)N(C)C3CCCCC3)cc2c1=O)CC(C)C	·	-0.7%	-4%	-12%	·	·	16%[46.1 µM]	4%[46.1 µM]
C=CCc1ccc(OCC(O)COCC)c(OC)c1 (stereo not drawn)	4%	-10%	42%[activator]	-2%	0%	1%	12%	-14%
CCn1c(SCC(=O)N(C)C2CCS(=O)(=O)C2)nnc1-c1cccs1 (stereo not drawn)	·	·	-2%	·	3%	-2%	1%[46.1 µM]	?
CSc1ccccc1C(=O)Nc1ncc(C)s1	0%	-2.8%	28%	-2%	-25%	2%	7%	24%
COCc1cc(C)nc2sc(C(=O)Nc3cc(C)ccc3F)c(N)c12	·	-8.7%	32%[activator]	20%	·	·	?	?
Cc1ccccc1N	·	7.2%&1.7%	0%	-10%&-7%	-13%	-8%	·	·
O=C(NCC1CCCO1)c1onc(CSc2ccc(F)cc2)c1C(=O)O (stereo not drawn)	11%	-0.8%	2%	1%	5%	0%	·	·
CCC(C)(C(=O)NC1CCCCC1)N(Cc1cccs1)C(=O)CC1NC(=O)NC1=O (stereo not drawn)	1%	8.7%	-13%	4%	4%	8%	7%	-22%
CCOC(=O)c1cccc(NC(=O)c2cc3sccc3n2C)c1	2%	-1.2%	-17%	-19%	-13%	-7%	-7%	10%
CCSc1nnc([C@H](Cc2c[nH]c3ccccc23)NC(=O)OC(C)(C)C)o1	-4%	-4.3%	1%	-6%	6%	-2%	?	?
CCOc1ccc(NC(=O)Nc2ccc3nsnc3c2)cc1	-2%	·	20%	·	-3%	-2%	2%	16%
Cc1cc(Cl)nc2c(C(C)C)cccc12	·	·	-10%	·	5%	0%	17%	5%
Cc1cc(C)c2oc(C(=O)Nc3c(C)n(C)n(-c4ccccc4)c3=O)cc(=O)c2c1	·	-2.7%	-22%	-24%	·	·	16%[46.1 µM]	-6%[46.1 µM]
CC1CC(=S)Nc2ccccc2N1C(=O)Nc1ccccc1 (stereo not drawn)	-6%	-2.8%	26%	18%	2%	4%	?	-20%
CCC(=O)N1CCc2cc(S(=O)(=O)NCCC(=O)Nc3ccc(OC)c(OC)c3)ccc21	·	-2.2%	-3%	1%	·	·	22%[46.1 µM]	1%[46.1 µM]
Cc1cc(C)c2sc(N(CCN(C)C)C(=O)c3ccc4ccccc4c3)nc2c1	-32%	·	-30%	·	4%	2%	·	·
C/[N+]([O-])=C\CC(=O)c1ccc(-c2ccccc2)cc1	·	·	14%	·	0%	-14%	1%	16%[46.1 µM]
O=[N+]([O-])c1cccnc1N1CCOCC1	0%	-2.4%	-3%	-2%	-2%	5%	15%	10%
CCN(CC)c1ccc(/C=C2\C(=O)NC(=O)N(Cc3ccco3)C2=O)cc1	-5%	-1.6%	?	-3%	-2%	-15%	-5%	-13%
CN(C(=O)CSc1ncnc2sccc12)C1CCCCC1	·	·	26%	·	45%	1%	7%	0%
CCN1CCN(CC(=O)NC2CCCC2)C(=O)C1=O	3%	-1.1%	-5%	-7%	-6%	4%	·	·
Cc1ccccc1OCc1nnc(SCCN2CCCC2)n1-c1ccccc1	6%	·	-9%	·	2%	-1%	-28%	?
N#Cc1c(N2CCN(C(=O)c3ccccc3)CC2)nc(-c2ccccc2)c2c1CCCC2	17%	?	?	?	0%	2%	?	?
CCOc1ccccc1OCCCC(=O)N1CCN(S(=O)(=O)c2cccc(F)c2)CC1	-5%	1.4%	-24%	?	1%	3%	8%	-14%
Cc1cccc(C(=O)N/N=C2\CS(=O)(=O)N(C)c3ccsc32)c1	-3%	·	-12%	·	-13%	4%	·	·
CCOC(=O)CC(NC(=O)CCS(=O)(=O)c1ccc2c(c1)n(C)c(=O)c(=O)n2C)c1ccc(C)cc1 (stereo not drawn)	-5%	·	-15%	·	0%	-2%	·	·
C[C@H](NC(=O)N1CCn2c1nc1ccccc12)C(=O)NC1CCCCC1	-2%	·	-20%	·	-2%	-4%	·	·
N=c1c2c(-c3ccccc3)c(-c3ccccc3)oc2ncn1Cc1ccco1	2%	0.4%	-7%	-2%	3%	?	1%	?
CCN(CC(=O)Nc1ccc2c(c1)OCCO2)C(=O)COc1cc(C)ccc1Cl	·	·	-13%	·	2%	2%	-10%	-19%
CCOC(=O)c1[nH]c2ccc(OC)cc2c1NC(=O)CCN1CCCC(C)C1 (stereo not drawn)	-4%	-0.8%	-2%	-2%	4%	-1%	-9%	3%[46.1 µM]
Clc1ccc(C2=NNC(=NCC3CCCO3)SC2)cc1 (stereo not drawn)	17%	-3.9%	19%	-4%	-26%	-8%	-6%[46.1 µM]	0%[46.1 µM]
Cc1cccc(C(=O)NCC(=O)NCCCSc2ccccc2)c1	·	·	8%	·	19%	-2%	-13%[46.1 µM]	17%
O=C(CSc1nc(-c2ccccc2Cl)ns1)c1ccc(Cl)cc1	1%	-3.4%	-11%	3%	-18%	10%	4%	-20%
COc1ccc(-n2nc(C(=O)NCCc3ccc(Cl)cc3)c3c4ccccc4n(C)c3c2=O)cc1Cl	·	-1.0%	0%	-5%	·	·	3%[46.1 µM]	-2%[46.1 µM]
Cn1c(SCc2c(Cl)cccc2Cl)nc(C(F)(F)F)cc1=O	6%	0.0%	2%	0%	4%	16%	-26%	?

Continuation:
SMILES	NS1 function inh	Cruzain inh Det	2A StopGo	Cruzain inh noDet	RE007 growth inh	SARS PLpro yeast	Lassa entry inh	MARV entry inh
CCOC(=O)N1CCN(C(=O)COC(=O)c2ccc(S(=O)(=O)N(CC)CC)cc2)CC1	·	·	-14%	·	1%	2%	3%	?
CCCCOC(=O)CCc1nc2ccccc2[nH]c1=O	-12%	-2.8%	25%	-1%	14%	-5%	21%	1%
Cc1ccc(/C=N/NC(=O)CCn2nc(C)cc2C)c(C)c1	-1%	·	7%	·	-3%	0%	?	-10%[46.1 µM]
CCCCNC(=O)CCn1nc(-c2ccc(C)cc2)c2ccccc2c1=O	-2%	·	2%	·	11%	-1%	·	·
COc1ccc(OCCNC(=O)c2cc(C3CC3)nc3c2cnn3C(C)C)cc1	·	·	-24%	·	11%	-2%	-1%	?
COc1ccc(Nc2c(-c3ccc(C)o3)nc3ccc(Cl)cn23)cc1	·	0.6%	-11%	2%	·	·	?	-1%[46.1 µM]
O=C(CSc1nc(O)c(Cc2ccccc2)c(=O)[nH]1)c1ccccc1	?	·	-9%	·	-5%	1%	13%	-15%[46.1 µM]
O=C(c1ccc(CS(=O)c2cccc(Cl)c2)o1)N1CCN(C2CCCCC2)CC1 (stereo not drawn)	-2%	·	?	·	-9%	0%	·	·
Cc1ccc(SCCNC(=O)/C=C/c2ccc([N+](=O)[O-])cc2)cc1	0%	-9.2%	?	-18%	-3%	-23%	7%	?
CC(C)Cc1cc(C(=O)Nc2ccc(F)cc2F)no1	?	1.7%	70%[activator]	4%	-3%	-5%	·	·
Cc1cccc(Cn2c(=O)n(-c3ccccc3C)c(=O)c3c2c2cc(C)ccc2n3C)c1	·	-3.3%	?	-12%	·	·	?	·
COc1ccccc1C(=O)NCCSCc1ccccc1Cl	-58%	·	18%	·	-22%	-13%	-1%	6%
CCN1CCN(CCCNC(=O)CS(=O)(=O)Cc2nc(-c3cccc(OC)c3)oc2C)CC1	0%	-1.6%	-6%&-14%	-5%	-2%	3%	11%&3%[46.1 µM]	2%&0%[46.1 µM]
CCc1ccccc1N(C)C(=O)CCc1nc(-c2ccc(C)cc2)no1	-85%	-4.7%	?	?	11%	3%	-19%	?
Cc1ccccc1N=Cc1cc2c(cc1O)OC(N)=C(C#N)C2c1ccccc1 (stereo not drawn)	-9%	-8.7%	?	-6%	-6%	12%	-40%	?
Cc1cccc(NC(=O)CSc2ncc(-c3ccc(Br)cc3)[nH]2)c1	·	-3.1%	23%	-22%	·	·	11%[46.1 µM]	?
